VDR inh: inhibitors of human vitamin D receptor. P11473. VDR-SRC2-3 peptide fluorescence polarization, 2 h. Potency, µM, inactives show max response, negative = inhibition, hits mostly inhibitors. 0.93% of 400,000 active. AID 504847; active = well fitted inhibition curve with a large enough effect; inconclusive = small, poorly fitted or top-dose-only effect, or another doubt; inactive = no such curve, though single readings can be large or run the other way; note: series mostly up to about 120 µM
Target sequence (P11473 whole entry, looked up): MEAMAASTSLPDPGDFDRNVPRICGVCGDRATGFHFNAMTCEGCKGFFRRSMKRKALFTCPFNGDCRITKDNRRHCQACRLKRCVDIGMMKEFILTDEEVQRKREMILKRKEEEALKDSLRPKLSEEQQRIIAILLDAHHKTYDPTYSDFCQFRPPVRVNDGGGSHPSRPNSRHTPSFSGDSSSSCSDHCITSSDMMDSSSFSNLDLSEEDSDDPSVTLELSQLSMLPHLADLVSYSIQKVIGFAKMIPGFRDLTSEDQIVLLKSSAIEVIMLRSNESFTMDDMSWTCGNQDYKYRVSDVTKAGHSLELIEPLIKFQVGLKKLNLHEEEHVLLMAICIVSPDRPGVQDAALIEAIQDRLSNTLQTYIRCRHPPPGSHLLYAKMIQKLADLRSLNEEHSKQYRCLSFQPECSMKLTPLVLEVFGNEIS
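FP read-out; VDR + SRC2-3 coactivator peptide; 23 nl compound by pintool; 2 h RT incubation; reagents held at 4 deg C, protected from light.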
Numbers without * were called inactive; ? = inconclusive. % is set by controls: 0 for no effect and ±100 for the full control effect; potency is the fitted concentration of half-maximal effect. A portion of the library (hit frequency here may not be typical).

Structure	VDR inh
O=C(COc1ccc(Cl)cc1Cl)Nc1ccc(C(=O)OC2CCCCC2)cc1	-12.5%
C/C(=N\Nc1ccc(C(=O)c2c(C)cc3ccccn23)cc1[N+](=O)[O-])c1ccc(O)cc1	-13.2%
O=C(COC(=O)c1cccc(Br)c1)NCCNC(=O)COC(=O)c1cccc(Br)c1	-6.8%
Cc1nc2cc(C(=O)N3CCN(C)CC3)ccc2n1C	-6.7%
CCOC(=O)Cc1csc(NS(=O)(=O)c2ccc(NC(C)=O)cc2)n1	-14.9%
COc1ccc(NC(=O)Cn2c(=O)n(-c3ccccc3)c(=O)c3oc4ccccc4c32)c(OC)c1	-15.1%
O=C(NCCCN1CCCC1=O)Nc1ccccc1Cl	?
COCCNC(=O)C(=O)NCC(c1cccnc1)N1CCN(c2ccccc2)CC1 (centres undefined)	7.2%
Cc1ccc(Nc2nc(N)nc(CN3CCC(C)CC3)n2)c(C)c1	4.9%
CCCCC1CCC(C(=O)N(C)CC(=O)Nc2cccc(OC)c2)CC1 (centres undefined)	5.0%
O=C(Cn1nc(C(F)(F)F)c2c1CCC2)NCc1ccc(F)cc1	8.8%
CC1=NN(c2ccc(Cl)c(C(=O)O)c2)C(=O)/C1=C/c1ccc(-c2ccccc2[N+](=O)[O-])o1	50.1µM*
O=C(NCc1nnc(SCC(=O)N2CCN(c3ccccc3)CC2)o1)c1ccc(F)cc1	-6.0%
COc1cccc(/C=C2\SC(=S)N(CC3CCCO3)C2=O)c1 (centres undefined)	-14.4%
CC1CCCC(NC(=O)CSc2n[nH]c(N)n2)C1C (centres undefined)	-8.0%
O=C(CN1C(=O)NC2(CCc3ccccc32)C1=O)Nc1c(Cl)cccc1Cl (centres undefined)	-10.8%
CCc1ccc(S(=O)(=O)NCCc2cn3ccsc3n2)s1	2.1%
COc1ccc(NC(=O)c2oc3ccccc3c2NC(=O)Cc2coc3c(C)c(C)ccc23)cc1	7.6%
CC(=O)Nc1cccc(-c2nc(-c3ccccc3)no2)c1	7.7%
Cc1ccc(C(=O)N2N=C(c3ccccc3)CC2(O)C(F)(F)F)o1 (centres undefined)	-17.4%
CSC(=CC(=O)c1ccc(F)cc1)SC	-4.7%
COc1cc(C)c(C2NC(=O)c3ccccc3N2)cc1C (centres undefined)	-20.8%
COc1cc(C2NC(=S)NC3=C2C(=O)CCC3)ccc1O (centres undefined)	-4.9%
CCOC(=O)c1ccc2c(c1)n(CC)c(C)[n+]2CC	-3.9%
COc1ccc(S(=O)(=O)Nc2ccccc2C(=O)N2CCCC2)cc1OC	9.3%
CN(C)CCNC(=O)COc1ccc(Cl)cc1Cl	-4.2%
COc1ccc(NC2=C3CCCC=C3N(c3ccc(OC)cc3)C2=O)cc1	-19.4%
COC(=O)CN(c1ccccc1)S(=O)(=O)c1cc(Br)ccc1OC	3.2%
CC(=O)c1ccc(NC(=O)CCCN2C(=O)COc3ccc(C)cc32)cc1	-24.5%
Cc1ccnc(SCc2cc(=O)c(OC(=O)c3ccc(Br)o3)co2)n1	-5.6%
COc1cccc(N2CCN(CC(=O)Nc3nc4c(s3)CC(C)CC4)CC2)c1 (centres undefined)	-7.1%
CCOC(=O)c1sc2ncn(C(CC)C(=O)OCC)c(=O)c2c1C (centres undefined)	18.5%
Fc1ccc(NC(=S)Nc2ccccc2N2CCOCC2)cc1Cl	-10.6%
COCCCn1c(SCC(=O)NCc2ccco2)nc2sc3c(c2c1=O)CCC3	5.5%
CCOc1nc(C)ccc1-c1noc(-c2ccccn2)n1	6.6%
COc1ccccc1-c1nc(SCC(=O)N(C)c2ccccc2)c2c(=O)n(C)c(=O)n(C)c2n1	-3.5%
CCCCNC(=S)N/N=C/c1ccc(C)s1	3.9%
CCn1cc(C2Nc3ccccc3C(=O)N2O)c(C)n1 (centres undefined)	-5.2%
O=c1c2ccccc2nc(SCc2nc(-c3ccccc3)no2)n1-c1ccc(F)cc1	-6.5%
CC(OC(=O)Cc1c[nH]c2ccccc12)C(=O)NC1CCCCC1C (centres undefined)	11.0%
COc1ccc2c(c1)C(=O)[C@@H](OC(=O)N[C@H]1CCCc3ccccc31)[C@H](c1ccc(OC)c(Br)c1)O2	4.8%
O=C(C1CCN(S(=O)(=O)N2CCC3(CC2)OCCO3)CC1)N1CCCCC1	2.5%
CCOc1ccccc1N(C(=O)c1ccccc1Cl)C1=NC(C)(C)CS1	-9.3%
CCCCNC(=O)C1CCCN(S(=O)(=O)CCC)C1 (centres undefined)	4.6%
CC(=O)c1ccc(OC(=O)CN2C(=O)c3ccccc3C2=O)cc1	-19.7%
Cn1nc(C(=O)N2CCc3ccccc3C2)c2ccccc2c1=O	-8.2%
COc1ccc(NC(=O)CCS(=O)(=O)c2ccc(Cl)cc2)cc1	-1.5%
COc1ccc(-c2sc3ccc(N4CCOCC4)cc3c2C#CCO)cc1	-1.4%
O=C(c1cccc(NS(=O)(=O)c2cccc([N+](=O)[O-])c2)c1)N1CCOCC1	-17.7%
O=c1cc(-c2ccc([N+](=O)[O-])cc2)nc2cc(-c3ccc(F)cc3)[nH]n12	-6.5%
COc1ccc(CNC(=O)C2(CC3CC(c4ccccc4)=NO3)CCN(C(=O)C3CCCC3)CC2)cc1 (centres undefined)	-9.7%
CCOC(=O)C1=C(CC)NC2=C(C(=O)CCC2)C1c1ccc(OC)c(OC)c1 (centres undefined)	-3.5%
CCOc1ccc(NC(=O)Cc2ccc(-n3c(C)nc4cccnc43)cc2)cc1	10.5%
CN1c2ccccc2C(=O)N2CCc3c([nH]c4ccccc34)C21 (centres undefined)	-1.0%
Cc1oc(-c2cccc(Cl)c2)nc1CS(=O)(=O)CC(=O)NC1CCCC1	-15.2%
CCOc1cccc(CNCCCSc2nnnn2C)c1	11.2%
O=C(c1ccc2c(c1)OCO2)N1CCCN(C(=O)c2ccc3c(c2)OCO3)CC1	4.6%
CN(C)c1ccc(C(=O)N2CCN(C(=O)C3CCCO3)CC2)cc1 (centres undefined)	-13.0%
Cn1cc(S(=O)(=O)N2CCN(c3ccccc3F)CC2)c(=O)n(C)c1=O	-9.5%
CCCCC[C@H]1CN(CCCC)C(=O)[C@@H]1CC(=O)NCc1ccc(OC)cc1	-11.6%

Part of the list above, with each value named:
CC(=O)c1ccc(OC(=O)CN2C(=O)c3ccccc3C2=O)cc1
  VDR inh = -19.7%

Cn1nc(C(=O)N2CCc3ccccc3C2)c2ccccc2c1=O
  VDR inh = -8.2%

COc1ccc(NC(=O)CCS(=O)(=O)c2ccc(Cl)cc2)cc1
  VDR inh = -1.5%

COc1ccc(-c2sc3ccc(N4CCOCC4)cc3c2C#CCO)cc1
  VDR inh = -1.4%

Continued.
Structure	VDR inh
O=C(NCc1ccncc1)C1CCN(C(=O)c2cccc(Cl)c2)CC1	-4.8%
CC1=C(C(=O)Nc2nc3ccccc3s2)C(c2ccco2)C(C#N)=C(SCC(=O)NC2CCCCC2)N1 (centres undefined)	-1.8%
Cc1cccc(C(=O)Nc2ccccc2SCc2cc(=O)c3cccc(C)c3[nH]2)c1	6.6%
Cc1ccc(CN2CCSc3ccc(C(=O)NCCCN4CCN(C)CC4)cc32)cc1	1.8%
CCOC(=O)CSc1nc2c(sc(=S)n2-c2ccccc2OC)c(=O)n1Cc1ccco1	-27.4%
CCOc1nc(CC(C)C)c2c(c1C#N)CC(C)(C)OC2	8.1%
COc1cccc(C(=O)Nc2ccc(Cl)c(-c3nc4ccccc4[nH]3)c2)c1	0.5%
COc1ccc(S(=O)(=O)n2cnc3ccccc32)cc1	1.5%
C/C=C/c1ccc(OCC(=O)N(C)CC(=O)Nc2ccc(F)cc2)c(OC)c1	-4.9%
O=C(NCc1cccs1)C1CCCN1S(=O)(=O)c1ccccc1F (centres undefined)	16.3%
CCOc1ccc(S(=O)(=O)N(CC(=O)NC2CCCCC2C)Cc2ccco2)cc1 (centres undefined)	-6.5%
COc1cccc(C(=O)Nc2ccc3c(C)cc(=O)oc3c2)c1	-22.2%
COCc1ccc(C(=O)N2CCCC(Nc3ccc4c(c3)OCCO4)C2)o1 (centres undefined)	-14.1%
COc1cccc(NC(=O)C(CCSC)NC(=O)C2CCC(C)CC2)c1 (centres undefined)	9.3%
CC12CCC=CC1C(c1cccc([N+](=O)[O-])c1)N(Cc1ccccc1)C2=O (centres undefined)	-9.5%
Cn1cnc(S(=O)(=O)N2CCCC(C(=O)Nc3ccc(F)cc3Cl)C2)c1 (centres undefined)	2.3%
O=C(O)C1NCCc2ccccc21 (centres undefined)	-0.4%
Cc1cccc(NC(=O)CCS(=O)(=O)c2cc(Br)cc3c2N(C(=O)C2CC2)CC3)c1C	-9.8%
COc1ccccc1NC(=O)CN1C(=O)C2(SCC(=O)N2c2ccc(C)c(C)c2)c2ccccc21 (centres undefined)	0.6%
Cc1cc(C)cc(C(=O)OCC(=O)NCc2cccs2)c1	-3.0%
C=CCn1c(C)cc(C(=O)COC(=O)c2cncc(Br)c2)c1C	3.7%
COc1ccc([C@H]2CC(=O)C=C(c3cc(Cl)ccc3C)C2)cc1	9.0%
Cc1cccn2c(=O)cc(CSc3nnc(NC(=O)C(C)C)s3)nc12	4.2%
Cc1nn(-c2ccccc2)c(N)c1N=Nc1ccc(Cl)cc1	4.8%
N/C(=N\OC(=O)/C=C/c1ccccc1Cl)c1cccnc1	14.9%
C[C@H](NC(=O)c1nc[nH]c1C(=O)NCc1ccc(CNC(=O)OC(C)(C)C)cc1)C(=O)OCc1ccccc1	-17.8%
S=C(NCCCN(Cc1ccc(Cl)cc1)c1ccc(Br)cn1)NCc1ccc2nc[nH]c2c1	-5.3%
Cc1cccc(C(=O)Nc2ccc(N3CCC(N4CCCCC4)CC3)c(C(=O)O)c2)c1	0.4%
C#CCSc1nc(N)c2c(n1)OC(N)=C(C#N)C2c1cccnc1 (centres undefined)	16.0%
CCCN1CCN(c2nc3c([nH]2)c(=N)ncn3CC(O)CO)CC1 (centres undefined)	-3.1%
COCCCNC(=O)c1ccc2c(c1)N(Cc1ccccc1)C(=O)c1ccccc1S2	5.4%
CN=C1SC(CC(=O)Nc2ccccc2F)C(=O)N1/N=C/c1ccc(O)c(OC)c1 (centres undefined)	-3.0%
FC(F)(F)c1ccccc1CN1CCC(Cc2ccccc2)CC1	-1.3%
CCOc1ccc(Cl)cc1S(=O)(=O)N1CCN(c2ccc(C)c(C)c2)CC1	-10.4%
C=Cn1c(N2CCOCC2)nc2c1c(=O)[nH]c(=O)n2C	7.0%
CCOC(=O)c1cnn(-c2ccc(F)cc2)c1N	15.0%
Cc1cccc(Cc2ncc(C(F)(F)F)cc2Cl)c1	-23.0%
Cc1ccc(Cl)cc1N1CCN(C2(c3ccccc3)C(=O)c3ccccc3C2=O)CC1	-9.6%
CCOCCCNS(=O)(=O)c1ccc(NC(=O)C2CC(=O)N(c3ccc(C)cc3)C2)cc1 (centres undefined)	12.1%
CCOC(=O)c1cn(CC2CC2)c2cc(F)c(F)cc2c1=O	9.6%

Of the compounds above, 3 have a cyano group:
Structure	VDR inh
CC1=C(C(=O)Nc2nc3ccccc3s2)C(c2ccco2)C(C#N)=C(SCC(=O)NC2CCCCC2)N1 (centres undefined)	-1.8%
CCOc1nc(CC(C)C)c2c(c1C#N)CC(C)(C)OC2	8.1%
C#CCSc1nc(N)c2c(n1)OC(N)=C(C#N)C2c1cccnc1 (centres undefined)	16.0%

Later entries
Structure	VDR inh
Clc1cccc(Cl)c1COc1ccccc1CNn1cnnc1	26.8%
CCCn1c(=N)c(S(=O)(=O)c2ccccc2)cc2c(=O)n3ccccc3nc21	-0.7%
Cn1cccc1C(=O)N1CCC2(CCCN(c3ncccn3)C2)CC1	-1.9%
CC(C)(C)Cc1nnc(NC(=O)c2ccco2)s1	-5.1%
CCOC(=O)c1c(CN2CCCCC2)n(C)c2ccc(OC)c(S(=O)(=O)c3ccccc3)c12	17.8%
CN(C(=O)C1CCOC1)c1nnc(-c2ccccn2)s1 (centres undefined)	8.2%
Cc1ccc(-c2c(C3C4C=CCCC4(C)C(=O)N3Cc3ccccc3)ccc3ccccc23)cc1 (centres undefined)	-11.4%
COCC1CCN(C(=O)CCc2nnc(C3(c4ccc(Cl)cc4)CCC3)o2)CC1	4.5%
CCc1ccc2[nH]c(=O)c(CN(CCN(C)C)C(=S)NCc3ccco3)cc2c1	2.4%
CC(C)(C)OC(=O)N1Cc2[nH]c3ccccc3c2C[C@@H]1C(=O)O	4.5%
COc1ccc([C@H]2CC(=O)C=C(c3cc(F)ccc3OC)C2)cc1	-19.7%
O=C(NCc1ccco1)C1Cc2ccccc2CN1C(=O)c1ccco1 (centres undefined)	-3.0%
COc1ccc(C)cc1NC(=O)CN(c1ccccc1)S(=O)(=O)N(C)C	-6.0%
COC(=O)c1c(NC(=O)COC(=O)CCNS(=O)(=O)c2ccc(NC(C)=O)cc2)sc(C)c1C	3.7%
O=C(N1CCCC1)N1CCN(S(=O)(=O)c2ccccc2)CC1	2.4%
COc1ccc(C2CC(=O)c3sc(N)nc3C2)cc1 (centres undefined)	22.3%
CC1CCc2[nH]c3ccc(C(=O)O)cc3c2C1 (centres undefined)	-7.2%

Some of the entries so far, field by field.
> O=c1cc(-c2ccc([N+](=O)[O-])cc2)nc2cc(-c3ccc(F)cc3)[nH]n12
  VDR inh: -6.5%

> COc1ccc(CNC(=O)C2(CC3CC(c4ccccc4)=NO3)CCN(C(=O)C3CCCC3)CC2)cc1 (centres undefined)
  VDR inh: -9.7%
